# Compound activity: PubChem BioAssay, several laboratories
# GALR2 ag: GALR2 (human) receptor agonism; O43603; GALR2-expressing cells, agonist activation read-out; activation, %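 (tested at 5 µM)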; 140,000 tested, 0.48% active; AID 803;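 active = above mean plus 3 SD of all compounds, about 5% in these data, not always enough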;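 note: 0% = vehicle buffer wells and 100% = reference agonist at full effect; tested in CHO reporter cells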
# Insulin prom inh: TRM-6 insulin promoter activity inhibition; TRM-6 cells (human fetal islet line), insulin promoter-eGFP reporter, imaging; reporter expression induced with tamoxifen; AID 1273; inhibition, % at 2 µM; 130,000 tested, 0.9% active;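 active = inhibition above the mean plus 3 SD, with well images judged a real hit on visual review, cut at about 60% in these data, passing the limit was not always enough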
# RGS16-Gao HTS: RGS16-Galphao interaction regulator (human). bead-based flow cytometry RGS16-Galphao binding, fluorescence; actives lie on both sides. O15492+P09471. binding response (% of control), % at 10 µM. 220,000 tested, 0.38% active;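 active = below 25% or above 175%, edge rows of some plates excepted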;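 note: Galphao activated by GDP with aluminum fluoride before binding; 100% = wells without compound and 0% = beads without RGS; some results beyond the cut were filed as inactive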
# HSV augment: HSV replication enhancement; HSV replication augmentation in cells, fold increase; maximum fold increase; 220,000 tested, 0.005% active; AID 1956;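 active = peak rise of 1.5-fold or more in the series; tested in PC3 cells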;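 note: first round at 10 µM; read as green reporter fluorescence; hits show the peak of a series up to 25 µM; 1 = signal of infected wells without compound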
# PKD1 kinase inh: blocks activity of human protein kinase D1. 200,000 tested, 0.056% active. inhibition, %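 (about 10 µM by stock and volumes)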. Q15139. PKD1 kinase fluorescence polarization assay;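 active = inhibition of 50% or more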;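 note: controls were vehicle for no effect and a reference inhibitor for full effect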
# Target sequence (Q15139 whole entry, looked up): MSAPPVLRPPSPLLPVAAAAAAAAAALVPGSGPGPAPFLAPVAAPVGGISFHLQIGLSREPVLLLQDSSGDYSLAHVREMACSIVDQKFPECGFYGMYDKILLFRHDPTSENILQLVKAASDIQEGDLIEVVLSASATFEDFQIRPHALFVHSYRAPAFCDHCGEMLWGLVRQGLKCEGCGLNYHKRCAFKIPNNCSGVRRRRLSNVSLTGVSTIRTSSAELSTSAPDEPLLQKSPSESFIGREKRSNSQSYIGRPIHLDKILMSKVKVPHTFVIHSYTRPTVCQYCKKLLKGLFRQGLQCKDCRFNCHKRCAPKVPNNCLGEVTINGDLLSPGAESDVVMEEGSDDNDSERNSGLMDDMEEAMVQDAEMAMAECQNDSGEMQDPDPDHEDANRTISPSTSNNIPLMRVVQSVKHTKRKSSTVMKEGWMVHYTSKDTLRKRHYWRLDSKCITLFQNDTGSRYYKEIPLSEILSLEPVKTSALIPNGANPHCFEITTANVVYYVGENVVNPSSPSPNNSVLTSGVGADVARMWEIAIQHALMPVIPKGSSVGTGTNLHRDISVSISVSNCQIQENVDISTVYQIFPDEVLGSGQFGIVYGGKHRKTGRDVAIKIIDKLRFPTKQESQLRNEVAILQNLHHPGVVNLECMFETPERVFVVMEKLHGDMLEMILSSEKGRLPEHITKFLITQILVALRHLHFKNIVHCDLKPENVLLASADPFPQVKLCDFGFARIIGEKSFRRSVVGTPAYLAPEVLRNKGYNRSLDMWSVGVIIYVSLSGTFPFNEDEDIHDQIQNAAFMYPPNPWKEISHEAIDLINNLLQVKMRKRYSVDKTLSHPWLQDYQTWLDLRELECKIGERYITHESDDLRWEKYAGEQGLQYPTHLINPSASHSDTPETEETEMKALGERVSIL
# Insulin prom inh cell count: recorded beside Insulin prom inh, whose call it bears; normalized cell count, %; measured here: cell count, toxicity; reference of the scale not given here;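 cells exposed to compound for 48 h; stained nuclei by imaging scaled within each plate; lower means fewer cells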
# HSV augment primary fold: further read-out of HSV augment, marked with its call; fold increase; compound at 10 µM; measured here: primary screen fold increase 10 uM; tested in PC3 cells;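 GFP signal in the first replicate; 1 = infected wells without compound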
# Numbers without * were called inactive; i = inactive; . = not tested or not shown; [ ] = remark or other dose.
Molecule	RGS16-Gao HTS	HSV augment primary fold	PKD1 kinase inh	Insulin prom inh	Insulin prom inh cell count	HSV augment	GALR2 ag
COc1ccc(OCC(=O)Nc2ccccc2OC(F)F)cc1	99	0.82	-3	0	96	i	-2.7
CC1=C(C(=O)OC2CCCC2)C(c2coc3ccc(C)cc3c2=O)C2=C(CCCC2=O)N1 (configuration not stated)	120	0.87	0	-9	135	i	.
O=C(O)CCc1ccc(-c2ccc(F)cc2)n1Cc1ccco1	100	1.2	-5	57	111	i	1.1
CC(C)(C)C1CCC(C(=O)Nc2cccnc2)CC1 (configuration not stated)	94	0.9	-1	.	.	i	.
CCOC(=O)N1CCC(NC(=O)C2CCN(c3ccc(N4CCOCC4)nn3)CC2)CC1	98	0.78	-15	29	145	i	-1.6
CCN(CC)S(=O)(=O)c1c(Br)cc(C)cc1Br	110	0.92	3	9	79	i	-4.3
CCCCOC(=O)c1ccc(Nc2ccc([N+](=O)[O-])cn2)cc1	101	1	-5	3	94	i	0.4
COc1ccc(C(=O)NC(=S)Nc2ccc(Cl)cn2)cc1OC	104	0.99	-9	.	.	i	.
CCOC(=O)Cc1nnc(Nc2ccc(C(=O)NC)cc2)c2ccccc12	97	1	.	.	.	i	.
O=C(NCc1ccco1)c1cc2n(n1)C(C(F)(F)F)CC(c1ccc(Cl)c(Cl)c1)N2 (configuration not stated)	102	0.86	-3	36	90	i	-1.2
CCN(CC)C(=O)CSc1nc2ccccc2c(=O)n1-c1cccc(OC)c1	105	0.82	-6	6	62	i	1.6
CCS(=O)(=O)Nc1ccc(NC(C)=O)cc1	104	0.82	1	30	71	i	-2.0
Cc1nc(C(=O)Nc2ccccc2Cl)cc2c1[nH]c1ccccc12	97	0.79	-7	.	.	i	-2.9
C/C(CC(=O)Nc1ccccn1)=N\NC(=O)c1cnccn1	100	0.99	.	.	.	i	.
Cn1c(-c2ccc(Cl)cc2)cnc1NCc1cc2c(cc1[N+](=O)[O-])OCO2	100	0.88	-10	27	99	i	-1.5
COc1ccc(CC(=O)OCC(=O)Nc2ccc3c(c2)OCCO3)cc1OC	93	0.89	-2	.	.	i	-0.4
CCOC(=O)c1c(N)n[nH]c1-c1ccccc1	102	1	-4	52	135	i	-1.4
Cc1ccc(/C=N/N2CCN(C3c4ccccc4-c4ccccc43)CC2)o1	93	0.93	.	.	.	i	.
CCOC(=O)C(C)(C)Sc1nc2c(cnn2-c2ccc(C)cc2)c(=O)[nH]1	109	0.97	2	100*	8.0*	i	3.7
C=CCN(CC=C)CCOc1ccc2ccccc2c1	103	1.2	1	18	70	i	.
Cc1[nH]c(C)c2c(=O)n(-c3ccccc3)ncc12	101	0.89	-5	.	.	i	-0.3
C=CCOC(=O)C1=C(C)Nc2[nH]c(=O)[nH]c(=O)c2C1c1ccccc1 (configuration not stated)	122	1	-8	-27	27	i	.
Cc1cc(NC(=O)CSc2nc(-c3ccccc3)c(C#N)c(=O)[nH]2)no1	113	1	-7	-3	104	i	-0.9
O=C1CS/C(=C/C(=O)c2ccccc2)N1	100	0.98	-99	-64	123	i	-0.5
Cc1cc(C)nc(N/N=C/c2ccccc2OCc2ccc(Br)cc2)n1	126	1	-6	17	95	i	0.1
Cc1nccn1CCC(=O)O	99	0.96	-9	3	99	i	-0.6
O=[N+]([O-])/C(C(Cl)=C(Cl)Cl)=C(/Sc1ccccc1)N1CCCCC1	98	0.84	.	.	.	i	.
Cc1ccc2nc3c(cc2c1)c(NS(=O)(=O)c1ccccc1)nn3CC(C)C	106	.	-4	18	135	.	1.2
COc1cc(NC(=O)Cn2nc(C(F)(F)F)c(Br)c2C)cc([N+](=O)[O-])c1	110	0.85	-12	-34	57	i	1.1
CCOC(=O)c1cnc2c(OC)cccc2c1N1CCN(c2ccccc2OC)CC1	104	0.9	0	29	57	i	1.0
CCOC(=O)N1CCC(NC(=O)c2cc(S(=O)(=O)NCCc3ccccc3)ccc2F)CC1	102	1	-4	6	99	i	-0.9
Cc1cc(Cl)c(S(=O)(=O)Nc2cccc(O)c2)cc1OCC(N)=O	110	1.1	-13	-62	76	i	-1.1
CCn1c(=O)c(C(=O)NCCCO)c(O)c2ccccc21	104	1	-2	0	42	i	2.7
O=C(Nc1ccc([N+](=O)[O-])cc1Br)c1cc2ccccc2nc1Cl	95	1.1	.	.	.	i	.
O=C(CSc1nc2ccccc2c(=O)n1Cc1ccco1)N1CCN(c2ccccc2)CC1	104	1	-6	-3	61	i	-1.6
CN(C)/C=N/c1ncn(-c2ncc(C(F)(F)F)cc2Cl)n1	98	1	-2	.	.	i	.
O=C(CCc1ccccc1)Nc1cccnc1Cl	85	0.98	.	.	.	i	.
O=C(CNC(=S)N(Cc1ccccc1)Cc1ccccc1F)NCCc1ccccc1	107	0.99	-4	-20	53	i	.
CCOC(=O)c1c(C)[nH]c(-c2csc(C)n2)c1C	102	.	-7	29	184	.	.
Cc1cc(N/N=C/c2ccccc2)nc(N)n1	90	1.1	.	.	.	i	.
CN1CCc2c(sc3nc(NN)n(Cc4ccccc4)c(=O)c23)C1	96	0.99	.	.	.	i	.
CCc1ccc2c(c1)C(c1ccc(N3CCOCC3)cc1)=NNC(c1ccncc1)=N2	103	0.94	4	.	.	i	.
O=C(Cc1ccccc1)Nc1nnc(-c2ccco2)s1	102	0.95	3	.	.	i	0.2
COc1ccc(NC(=S)NCC2CCN(c3ccc(OC)cc3)C2)cc1 (configuration not stated)	95	0.94	6	-5	176	i	0.2
COc1ccc(S(=O)(=O)N2CCOCC2)cc1NC(=O)c1ccccc1-c1ccc(C(F)(F)F)cc1	104	0.95	-3	13	120	i	1.4
CCC(NC(=O)c1ccccc1NC(=O)c1ccccc1)C(=O)O (configuration not stated)	93	0.8	0	.	.	i	-0.7
CC(C)(C)c1cc(NS(=O)(=O)c2ccc3c(c2)OCCO3)on1	104	0.79	-3	-27	141	i	0.8
CCn1ccc(C(=O)NC2=C(C#N)CCC2)n1	102	1.1	-10	56	83	i	0.1
O=C(OCc1cc(=O)n2c(n1)sc1ccccc12)c1cccc(O)c1	106	1	-7	6	38	i	0.0
COc1ccccc1NC(=O)Cn1c(=O)oc2ccccc21	98	0.89	-4	11	86	i	-1.3

# 2 entries from above in another layout:
# Below each SMILES – RGS16-Gao HTS | HSV augment primary fold | PKD1 kinase inh | Insulin prom inh | Insulin prom inh cell count | HSV augment | GALR2 ag
CCn1c(=O)c(C(=O)NCCCO)c(O)c2ccccc21
  104 | 1 | -2 | 0 | 42 | i | 2.7
O=C(Nc1ccc([N+](=O)[O-])cc1Br)c1cc2ccccc2nc1Cl
  95 | 1.1 | . | . | . | i | .

# Carrying on:
Molecule	RGS16-Gao HTS	HSV augment primary fold	PKD1 kinase inh	Insulin prom inh	Insulin prom inh cell count	HSV augment	GALR2 ag
Cc1ccc(N=Nc2ccc(N)cc2C)c(S(N)(=O)=O)c1	94	1	.	.	.	i	.
CCCSc1cc(N)cc([N+](=O)[O-])c1	103	0.91	9	27	121	i	.
Cc1ccc(-c2csc(NC(=O)C3=COCCO3)n2)cc1	75	1.4	-10	.	.	i	-0.4
CCOC(=O)c1c(NC(=O)C2CCCO2)sc(C(N)=O)c1C (configuration not stated)	295*[activator]	0.94	-8	41	124	i	-0.9
CC(=NCCc1ccccc1)C1=C(O)CCC1=O	171	1.1	-4	-28	88	i	-1.0
COc1cc(NC(=O)CN2C(=O)NC(c3ccccc3)(c3ccccc3)C2=O)c(C)cc1[N+](=O)[O-]	107	0.87	0	40	91	i	-1.1
COc1ccc(NS(=O)(=O)c2ccc(C)c(NC(=O)NC3CCCCC3)c2)cc1	101	1.1	1	.	.	i	-0.6
CC1=CC(C)(C)N2C(=O)C3(NCCc4c3[nH]c3ccccc43)c3cccc1c32 (configuration not stated)	111	0.95	-1	.	.	i	.
Cc1[nH]c2ccccc2c1C1C(c2ccccc2)=NN=C(C(C)C)N1O (configuration not stated)	102	0.92	8	8	127	i	-0.5
CC1(C)Cc2c(C#N)c(SCc3ccccc3)nc(N3CCOCC3)c2CO1	102	1.1	-5	.	.	i	-1.6
CCOC(=O)c1c(N)sc(C(=O)OCCOC)c1C	93	1.1	-2	.	.	i	.
COc1ccc2c(CCNC(=O)CN3C(=O)c4ccccc4C3=O)c[nH]c2c1	58	0.98	-1	-3	45	i	-0.7
CC(=O)c1cccc(NC(=O)N2C3CCC2CC(O)(c2cccnc2)C3)c1 (configuration not stated)	103	1	1	16	115	i	-1.5
COc1ccc(NC(=S)NC(=O)c2csnn2)cc1	100	0.96	-4	.	.	i	.
CCCc1cc(Nc2c(C)n(C)n(-c3ccccc3)c2=O)n2c(nc3ccccc32)c1C#N	92	0.7	-9	i	31	i	0.6
COc1ccc(NC(=O)N(Cc2ccc(C)cc2)Cc2cccnc2)c(OC)c1	99	0.91	-5	.	.	i	-0.4
O=c1[nH]c(/C=C/c2ccc(Br)cc2)nc2c1cnn2-c1ccccc1	101	0.9	-7	.	.	i	.
Cc1sc2nc(CC(N)=O)[nH]c(=O)c2c1-c1ccccc1	113	0.94	0	7	135	i	-0.2
COc1ccc(OC)c(C2=NOC(C(=O)NCc3ccco3)C2)c1 (configuration not stated)	118	1.2	-8	41	42	i	-1.0
Nc1nc(OCC(F)(F)F)cc(Oc2ccccc2F)n1	104	0.99	-6	.	.	i	-1.2
CCOc1ccccc1CN1CCN(S(C)(=O)=O)CC1	229	0.77	-6	0	103	i	0.3
O=C(Nc1ncccn1)c1cc([N+](=O)[O-])cc([N+](=O)[O-])c1	103	0.96	-6	-26	120	i	0.0
Cc1ccc(S(=O)(=O)N/N=C\c2cn(-c3ccccc3)nc2-c2ccccc2)cc1	104	0.95	2	.	.	i	-3.4
CCN(CC)C(c1ccc(C)cc1)c1nnnn1C1CCCCC1 (configuration not stated)	103	1.1	3	-11	134	i	-1.1
Cc1cc(C(=O)N/N=C2\CC(=O)CC(C)(C)C2)n[nH]1	97	1.1	-6	7	39	i	-1.1
O=C(CCN1CCC(c2ccccc2)C1)c1cccs1 (configuration not stated)	100	1.1	1	35	79	i	-2.0
CCOc1cc(C(=O)Nc2ccc(S(=O)(=O)N3CCOCC3)cc2)cc(OCC)c1OCC	98	0.92	3	.	.	i	-1.0
CCC(CC)NC(=O)c1oc2ccccc2c1COc1ccccc1	110	0.99	-7	.	.	i	-0.2
CCOC(=O)CNc1nc(Oc2ccc(=O)n(C)n2)nc(N(CC)CC)n1	98	0.97	-1	.	.	i	.
O=C(CSc1cn(CC(=O)N2CCCCCC2)c2ccccc12)NCC1CCCO1 (configuration not stated)	99	0.98	1	-100	79	i	.
CCOC(=O)c1oc2cc(O)ccc2c(=O)c1-c1csc(C)n1	103	1	-10	.	.	i	-2.2
O=[N+]([O-])c1cc(C(F)(F)F)cc([N+](=O)[O-])c1NCCCN1CCOCC1	99	1	8	0	129	i	.
COc1ccc2c(c1OC)C(=O)N1N=C(c3ccc(F)cc3)CC21 (configuration not stated)	98	0.91	2	.	.	i	.
Cc1onc(-c2c(F)cccc2Cl)c1C(=O)N1CCOC12CCCCC2	95	0.92	-1	.	.	i	.
O=C(CSc1nnc(CNC(=O)c2ccccc2F)o1)Nc1ccc2c(c1)OCO2	97	0.97	-5	-44	126	i	.
O=C(O)C1CCCN(S(=O)(=O)c2ccc(F)cc2)C1 (configuration not stated)	93	0.93	1	.	.	i	-1.2
CCS(=O)(=O)c1ccc(S(=O)(=O)CC)s1	93	1.1	-1	39	122	i	1.1
COc1ccc(N2C(=O)CC(NCc3ccncc3)C2=O)cc1 (configuration not stated)	102	0.94	-4	-14	149	i	-0.9
CCOC(=O)c1c(NC(=O)C(C)Sc2cccc[n+]2[O-])sc2c1CCN(Cc1ccccc1)C2 (configuration not stated)	121	1.1	2	-81	91	i	0.4

# Ordered by heavy-atom count (highest first): part of the list above.
Molecule	RGS16-Gao HTS	HSV augment primary fold	PKD1 kinase inh	Insulin prom inh	Insulin prom inh cell count	HSV augment	GALR2 ag
CCOC(=O)c1c(NC(=O)C(C)Sc2cccc[n+]2[O-])sc2c1CCN(Cc1ccccc1)C2 (configuration not stated)	121	1.1	2	-81	91	i	0.4
COc1ccc2c(c1OC)C(=O)N1N=C(c3ccc(F)cc3)CC21 (configuration not stated)	98	0.91	2	.	.	i	.
COc1ccc(N2C(=O)CC(NCc3ccncc3)C2=O)cc1 (configuration not stated)	102	0.94	-4	-14	149	i	-0.9
